# KCNQ2 enhance – KCNQ2 (rat) channel potentiation; O88943; CHO-K1 KCNQ2, FluxOR thallium flux fluorescence; stronger effect = higher value; B-score at 10 µM; hit rate 0.54% among 310,000; AID 2239;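 active = fluorescence ratio B-score at least 3 SD of library B-scores, with initial fluorescence B-score within 3 SD, cut at about 5.3 in these data; same plate scores as AID 2156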;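 note: B-score of peak minus minimum over baseline fluorescence ratio after K+ and Tl+ stimulus; positive B-score means potentiation of KCNQ2 with more thallium influx and brighter signal; only the inactives scoring about 0 or higher are listed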
# Target sequence (O88943 whole entry, looked up): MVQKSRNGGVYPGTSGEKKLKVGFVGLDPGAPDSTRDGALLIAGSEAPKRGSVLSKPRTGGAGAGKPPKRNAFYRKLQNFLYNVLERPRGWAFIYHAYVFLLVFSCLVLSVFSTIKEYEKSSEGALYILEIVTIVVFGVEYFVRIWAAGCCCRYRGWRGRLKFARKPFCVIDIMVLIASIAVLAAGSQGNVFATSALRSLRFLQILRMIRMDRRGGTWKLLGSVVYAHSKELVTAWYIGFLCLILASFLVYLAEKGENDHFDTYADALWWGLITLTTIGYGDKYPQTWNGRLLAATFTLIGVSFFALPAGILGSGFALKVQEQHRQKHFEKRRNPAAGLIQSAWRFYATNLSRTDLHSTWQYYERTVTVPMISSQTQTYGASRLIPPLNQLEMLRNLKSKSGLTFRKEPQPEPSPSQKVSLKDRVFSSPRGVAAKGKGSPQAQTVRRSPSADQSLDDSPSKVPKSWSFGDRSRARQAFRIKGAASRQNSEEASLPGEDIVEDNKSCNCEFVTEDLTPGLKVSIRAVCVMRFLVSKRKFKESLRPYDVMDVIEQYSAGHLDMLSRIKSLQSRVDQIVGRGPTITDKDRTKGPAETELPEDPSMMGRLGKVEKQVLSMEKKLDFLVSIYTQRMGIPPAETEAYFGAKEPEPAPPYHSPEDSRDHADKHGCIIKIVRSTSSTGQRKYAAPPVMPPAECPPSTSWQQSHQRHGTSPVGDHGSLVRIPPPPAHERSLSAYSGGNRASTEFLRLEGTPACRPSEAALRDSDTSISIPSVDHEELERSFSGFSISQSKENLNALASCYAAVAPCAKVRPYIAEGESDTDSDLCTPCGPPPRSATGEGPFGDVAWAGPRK
# KCNQ2 enhance baseline – second read-out of KCNQ2 enhance, no call of its own (marks repeat the call); B-score; compound at 10 µM; measured here: initial fluorescence intensity artifact check;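 brightness before thallium and not channel activity; 0 = typical well and far values either way flag optical interference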
# Starred values were filed as active, the others as inactive.
SMILES,KCNQ2 enhance,KCNQ2 enhance baseline
Cc1ccc(S(=O)(=O)N/N=C/c2cccc3c2OCCO3)cc1,0.65,0.72
COc1ccc(-c2nnc(SCc3cccc(C#N)c3)o2)cc1,0.33,0.96
O=C(ON=C1CCN(S(=O)(=O)c2ccccc2)CC1)c1ccc(Cl)cc1,0.86,-1.3
Cn1c(=O)c2c(nc(NCCO)n2C)n(C)c1=O,1.1,-1.3
CCCN1CCN(CCCNC(=O)CN2C(=O)c3cccnc3Oc3ccc(C)cc32)CC1,0.13,0.4
CCc1c(C)nc(SCCOc2ccc(OC)cc2)[nH]c1=O,0.34,-0.92
CCc1nnc(NC(=O)CSc2nc3c(cc2C#N)CCCC3)s1,0.71,0.89
Fc1ccc(-c2nnc(-c3ccc(Cl)cc3Cl)o2)cc1,0.56,0.52
CN1CCN(c2ccc(NC(=O)c3ccc4c(c3)OCO4)cc2)CC1,1.1,-1.5
CC(=O)c1cnn(-c2cc(Oc3ccccc3C)ncn2)c1C,1.3,-0.7
CCOC(=O)CC1CCCCN1Cc1cn(C)nc1-c1ccc2c(c1)OCCO2 (stereo unspecified),0.55,1.6
COc1ccc(Cn2c(C)c(C)c(C#N)c2NC(=O)Nc2ccccc2)cc1,1.7,-0.06
O=C(Nc1cccc(C(=O)O)c1)/C(=C\c1ccco1)NC(=O)c1ccccc1Cl,0.22,0.8
COc1ccc(S(=O)(=O)N/N=C(/C)c2ccc(C)o2)cc1,1.6,-0.66
CCOC(=O)c1[nH]cnc1C(=O)Nc1ccccc1,0.85,-1.4

# A portion taken from the entries so far, as a working copy:
SMILES,KCNQ2 enhance,KCNQ2 enhance baseline
Cn1c(=O)c2c(nc(NCCO)n2C)n(C)c1=O,1.1,-1.3
CCCN1CCN(CCCNC(=O)CN2C(=O)c3cccnc3Oc3ccc(C)cc32)CC1,0.13,0.4
CCc1c(C)nc(SCCOc2ccc(OC)cc2)[nH]c1=O,0.34,-0.92
CCc1nnc(NC(=O)CSc2nc3c(cc2C#N)CCCC3)s1,0.71,0.89
Fc1ccc(-c2nnc(-c3ccc(Cl)cc3Cl)o2)cc1,0.56,0.52

# The results go on:
SMILES,KCNQ2 enhance,KCNQ2 enhance baseline
Cc1ccc(C)c(NC(=O)CSc2nnc(-c3cc(C)[nH]n3)n2N)c1,0.19,0.68
O=C(NCCNCc1ccccn1)c1ccco1,1.2,-0.01
O=C(Nc1cccc(S(=O)(=O)Nc2ccc(Cl)cc2)c1)c1ccc[n+]([O-])c1,0.09,0.33
CCOc1ccc(C(=O)NCC(=O)OCC(=O)Nc2ccccc2OC)cc1,0.07,-2.1
CCCCC(CCC(=O)Nc1cccc([N+](=O)[O-])c1)C(=O)O (stereo unspecified),0.82,-0.01
CC(=O)CC(C)(C)S(=O)(=O)c1ccc(NC(C)=O)cc1,1,0.32
O=C(O)c1ccc(N2CCN(c3ccc(Cl)cc3)CC2)c([N+](=O)[O-])c1,0.85,-0.45
Cc1ccc2[nH]c3c(c2c1)CNCC3,0.09,0.59
Cc1cc(OCC(=O)Nc2ccncc2)cc(C)c1Br,0.3,-0.5
COc1ccc(-c2cc(C)no2)cc1S(=O)(=O)Nc1cccc(C)c1,0.7,0.05
O=P(O)(Cc1ccccc1)Cc1ccccc1,0.34,1.7
CCc1ccc(CN2CCCC(CNS(=O)(=O)c3ccc(OC)cc3)C2)cc1 (stereo unspecified),0.08,-0.02
COc1ccc(CNc2nc3nc4c(c(=O)n3[nH]2)CCC4)cc1,0.34,0.16
COc1ccc(CNc2nc(S(=O)(=O)c3ccccc3)c(Cl)s2)cc1OC,0.14,0.79
CCN1CCN(c2nc(-c3ccccc3)nc3ccccc23)CC1,0.06,0.03
Fc1ccc(C2CC(c3ccco3)n3ncnc3N2)cc1 (stereo unspecified),0.95,-0.03
O=C1CCC(=O)N1c1ccc(-c2nc3ccccc3s2)cc1,0.85,-1.4
COc1ccc(NC(=S)N2CCOCC2)c(OC)c1,0.14,-0.73
COC(=O)c1ccccc1NC1OC(=O)c2ccccc21 (stereo unspecified),0.7,-0.55
Cc1ccc(NC(=O)c2cccs2)cc1,0.09,0.87
CCCCN(C(=O)c1cccc(S(=O)(=O)N2CC(C)OC(C)C2)c1)c1c(N)n(CC(C)C)c(=O)[nH]c1=O (stereo unspecified),0.01,-1.2
Cc1c(C(=O)N2CCOCC2)c(S(=O)(=O)N2CCN(c3ccc(Cl)cc3)CC2)c(C)n1C,0.45,1.3
COc1ccccc1/C=C/C=N/n1c(-c2cc(C)[nH]n2)n[nH]c1=S,0.42,-0.5
C=CCOc1c(OC)cc(/C=N/Nc2cccc(C(=O)O)c2)c(Br)c1Br,2.8,1.2
CN(CC(=O)Nc1ccc(F)cc1)C(=O)CN1C(=O)NC2(CCCc3ccccc32)C1=O (stereo unspecified),0.9,-0.28
Cc1cc(Nc2cc(Cl)cc(Cl)c2)nc(N)n1,3,-0.46
COc1ccc(C2=NOC(C3(S(=O)(=O)c4ccccc4)CC(O)C3)C2)cc1 (stereo unspecified),0.85,0.34
CCSc1nnc(NC(=O)C2CCCCC2)s1,1.8,-0.97
Cc1cc(O)cc(=O)n1Cc1ccccc1,0.23,1.5
Cc1c(C)n(CCN(C)C)c2ncnc(NCc3ccccc3)c12,0.23,-0.34
COCCn1c(SCC(=O)Nc2cccc(OC)c2)nc2c(oc3ccccc32)c1=O,0.29,-1
COc1cc(C(=O)N/C(=C\c2cn(S(=O)(=O)N(C)C)c3ccccc23)C(=O)N2CCCC2)cc(OC)c1OC,0.33,1.4
CCN(Cc1ccccc1)C(=O)CC(=O)N(CC)Cc1ccccc1,0.63,0.39
Cc1nc2ccccn2c1C(=O)N/N=C/c1ccccc1Cl,0.25,0.81
O=C1CSc2ccc(S(=O)(=O)NCc3ccc(Cl)cc3)cc2N1,0.03,-1.5
O=C(O)c1cc2cccc(S(=O)(=O)N3CCOCC3)c2cc1O,1.5,-3.1
Cc1ccc(-c2noc(CCC(=O)NCCN3CCOCC3)n2)cc1,0.04,-1
COC(=O)c1sc(NC(=S)NC(=O)c2ccccc2F)nc1C,4.9,-0.04
CCOC(=O)Cc1ccc(NC(=O)c2ccc([N+](=O)[O-])cc2)cc1,0.37,0.18
COCCCNC(=O)c1cc(C(=O)c2c(-c3c(Cl)cccc3Cl)noc2C)c[nH]1,1.8,0
Cc1ccc(-c2nc3ccccc3[nH]2)cc1NC(=O)c1ccc2c(c1)OCO2,0.03,-1
O=C(CN1CCC(Cc2ccccc2)CC1)N1CCc2ccccc2C1,0.58,-1.8
COc1ccc(CNC(=O)CN2C(=O)C(c3ccccc3)Oc3cccnc32)cc1 (stereo unspecified),1.9,-0.54
Cc1ccc(-c2ncns2)cc1,0.31,-0.29
N#CCC(=O)Nc1ccc(C(=O)OCC(=O)N=c2sccn2Cc2ccccc2Cl)cc1,2,-1.3

# Quoted from the listing.
# KCNQ2 enhance, `O=C(O)c1cc2cccc(S(=O)(=O)N3CCOCC3)c2cc1O` is entered as 1.5
# KCNQ2 enhance, `O=C(CN1CCC(Cc2ccccc2)CC1)N1CCc2ccccc2C1` is entered as 0.58
# KCNQ2 enhance baseline, `COc1ccc(CNC(=O)CN2C(=O)C(c3ccccc3)Oc3cccnc32)cc1` (stereo unspecified) is entered as -0.54
# KCNQ2 enhance, `CCOC(=O)Cc1ccc(NC(=O)c2ccc([N+](=O)[O-])cc2)cc1` is entered as 0.37

# Later entries
SMILES,KCNQ2 enhance,KCNQ2 enhance baseline
COc1ccc(NC(=O)C2CCN(c3nnnn3-c3ccccc3)CC2)cc1,1.4,-0.63
Cc1ccc2cc(CN(Cc3ccco3)C(=S)NCC3CCCO3)c(=O)[nH]c2c1 (stereo unspecified),0.92,0.16
COc1ccc(OC)c(N(C)S(=O)(=O)c2cc3c(cc2C)NC(=O)CO3)c1,0.18,-3.1
COc1cccc(CC(=O)OCC(=O)N(C)CC(=O)Nc2ccc(Cl)c(C(F)(F)F)c2)c1,1.2,-0.01
COc1cccc(OCC(O)CN2CCN(c3ccccn3)CC2)c1 (stereo unspecified),0.33,0.22
O=C(Nc1ccc(S(=O)(=O)Nc2nccs2)cc1)c1ccc(F)cc1,0.65,1.4
Cc1ccc(-c2csc(SCC(=O)Nc3cc(C)on3)n2)cc1,1.1,1.2
O=C(/C=C/c1ccccc1)N1CCN(Cc2nc3ccccc3c(=O)[nH]2)CC1,0.99,-1.1
CCS(=O)(=O)c1ccc(-c2cccc(NC(=O)COc3ccc(Cl)cc3)c2)nn1,0.03,2.5
O=S(=O)(Nc1ccc2ccccc2n1)c1ccccc1,2.1,-2.1
COc1cccc(/C=c2\s/c(=C\C(=O)C(C)(C)C)[nH]c2=O)c1,0.28,0.46
CCCCN(C)C(=O)c1ccc2c(c1)S(=O)(=O)c1ccccc1C2=O,1.4,-0.39
Cc1ccc(-n2nnnc2SCC(=O)N2Cc3ccccc3CC2C(=O)O)cc1 (stereo unspecified),0.04,0.53
O=C1CCCN1c1ccc(S(=O)(=O)N2CCC(c3ccccc3)CC2)cc1,1.3,-0.64
Cc1ccc(S(=O)(=O)NN2C(=O)/C(=C\c3ccc(Cl)cc3)SC2=S)cc1,1.9,0.88
COc1ccccc1NS(=O)(=O)c1ccc(O)c(NC(=S)NCC2CCCO2)c1 (stereo unspecified),0.44,0.93
CC(C)(C)c1nc(SCC(=O)NCc2ccco2)c2ccccc2n1,0.34,0.51
N#Cc1ccc(-c2ccccc2)nc1SCCN1CCOCC1,0.48,0.01
O=C(Cc1cccc2ccccc12)NCC(=O)Nc1ccccc1F,0.46,0.14
Cc1cc(NS(=O)(=O)c2ccc(NC(=O)C(C)Oc3cc(C)c(Cl)c(C)c3)cc2)no1 (stereo unspecified),1.4,-1.2
COc1ccc(F)cc1C(=O)C1CCCN(Cc2ccc(Oc3ncccn3)cc2)C1 (stereo unspecified),0.05,0.74
CCCSc1nc(O)c(C2OC(=O)c3c2ccc(OC)c3OC)c(=O)n1C (stereo unspecified),0.76,1
N/C(=N\OC(=O)c1cccc(Cl)c1)c1cccnc1,2.5,-2.1
Cc1csc(NC(=O)CCCC(=O)c2ccccc2)n1,0.03,-1.1
CCOc1ccc(C(C)NC(=O)c2cccc(F)c2)cc1 (stereo unspecified),2.6,-0.21
CC(=O)c1cc(-c2ccccc2)[nH]c1N1CCCC1,0.82,0.9
O=C(Cn1c2[n+](c3ccc(C(F)(F)F)cc31)CCCCC2)Nc1ccc(Br)cc1,1.9,-3.1
Cc1nc2sc3c(c2c(=O)n1/N=C/c1ccco1)CCCC3,0.01,1.4
CCOc1ccc(N2C(=O)CC(N(CCc3ccc(OC)c(OC)c3)C(=O)/C=C/C(=O)O)C2=O)cc1 (stereo unspecified),0.19,-0.31
COc1ccc(CCNC(=O)COC(=O)C23CC4CC(CC(Br)(C4)C2)C3)cc1,0.32,2.4
Cc1cccc(OCC(=O)OCC(=O)N2CCN(C(=O)c3ccco3)CC2)c1C,1.5,2.1
CCCCNC(=O)Cn1nc([N+](=O)[O-])c([N+](=O)[O-])c1C,0.7,-1.1
Cc1cc(C)n(C(C)CC(=O)Nc2ccc3c(c2)OCCO3)n1 (stereo unspecified),0.34,1.3
COc1ccccc1/C=N/NC(=O)CC(=O)NCc1ccccc1,1,1.2
O=C(Cc1ccccc1)NC1CCN(Cc2ccccc2)CC1,1.8,-0.87
CC(O)(CS(=O)(=O)c1ccc(Br)cc1)c1ccccc1 (stereo unspecified),0.04,-0.12
Cn1c(=O)c(=O)n(C)c2cc(S(=O)(=O)N3CCN(Cc4ccccc4)CC3)ccc21,0.08,0
CC(=O)N1CCN(S(=O)(=O)c2ccc(Cl)cc2F)CC1,0.4,-0.02
CCc1ccccc1NC(=S)N(CCN1CCOCC1)Cc1ccccc1F,0.42,0.05
Cc1noc(C)c1CSCC(=O)Nc1nc2ccccc2s1,0.16,0.23
N#Cc1ccccc1OCC(=O)N(Cc1nnc(-c2ccccc2Cl)o1)C1CC1,0.09,1.4
O=C1CN(C(=O)CNC(=O)c2cccc(Cl)c2)c2ccccc2N1,1.5,-0.3
CCC(CC)C(=O)Nc1cccc(S(=O)(=O)c2cccc(NC(=O)C(CC)CC)c2)c1,0.81,-0.02
CC(=O)Nc1ccc(C(=O)n2cnc3cc(C)c(C)cc32)cc1,0.6,0.18
CN1CCN(C(=O)CN2C(=O)CC(C)(C)S(=O)(=O)c3ccccc32)CC1,1.1,-2.1
CCC(=O)Nc1ccc(NC(=O)c2oc3ccccc3c2C)cc1,1.4,-1.2
C=CCN1C(=O)c2ccc(C(=O)N(C)CC(=O)Nc3c(C)cccc3C)cc2C1=O,1.8,0.61
CCOC(=O)NC(c1cccc(Cl)c1)C1CCCCCC1=O (stereo unspecified),1.1,-0.02
CCC(=O)c1ccc(OC(=O)c2ccc(Br)o2)cc1,1.5,-2
COc1ccc(/C=N/NC(=O)Nc2nonc2N)cc1,1.3,0
CCOC(=O)c1c(N)sc2c1CCSC2,0.78,-1.1
O=c1nc2sc3ccccc3n2c(=O)n1-c1cccc(Cl)c1,1.8,0.55
Fc1ccc(/C=N/N2CCN(Cc3ccccc3)CC2)cc1,0.13,1.1
CC(=O)Nc1ccc(S(=O)(=O)Nc2ccc(S(=O)(=O)Nc3nc(C)cc(C)n3)cc2)cc1,0.13,3.1
Cn1cnc([N+](=O)[O-])c1C(=O)Nc1cccc([N+](=O)[O-])c1,1.1,0.25
CCOC(=O)N1CCN(c2c(-c3ccc(C(C)C)cc3)c(=O)c2=O)CC1,2.2,-0.52
Cc1ccc(/C=N/Nc2nc3ccccc3[nH]2)s1,0.53,0.8
CCC(=O)Nc1ccc(Cl)c(NC(=O)c2ccc([N+](=O)[O-])cc2)c1,2.2,0.72
O=C(O)c1ccc(NC(=S)NC(=O)c2ccc3ccccc3c2)cc1,0.84,-0.46
S=C1N(c2ccccc2)CN(CCN2CCOCC2)CN1c1ccccc1,0.64,1.3

# Retrieved one by one from the entries so far:
SMILES,KCNQ2 enhance,KCNQ2 enhance baseline
CCOC(=O)c1c(N)sc2c1CCSC2,0.78,-1.1
COc1ccc(/C=N/NC(=O)Nc2nonc2N)cc1,1.3,0

# A portion of the library, so the mix of outcomes need not match the whole.
